gsp antag = qHTS for Antagonists of gsp, the Etiologic Mutation Responsible for Fibrous Dysplasia/McCune-Albright Syndrome: qHTS; gsp-mutant cells, cAMP HTRF, 30 min; control for the full effect not named in the record; Potency, µM (series often up to 76.9 µM), for inactives: at the highest dose activity change, negative = inhibition, usual class: inhibitors; 340,000 compounds, 0.4% hits; active = falling curve of any shape with a large fitted effect; inconclusive = falling curve, mostly with a smaller effect; inactive = flat or rising curve; cell line not stated here;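 note: intracellular cAMP measured with PDE inhibitor Ro 20-1724 present during compound exposure; potency is the fitted concentration of half-maximal effect; % is set by controls: 0 for no effect and ±100 for the full control effect; nearly all actives have a fitted effect of over 65% in size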
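Measurement of cellular cAMP by homogeneous time-resolved fluorescence following a 30 min compound exposure at 37C. The PDE inhibitor […] was present throughout; the assay buffer was DPBS with 0.05% BSA and 0.005% Tween 20.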
D2 PAM = Beta-Arrestin HTS for Positive Allosteric Modulators of the Human D2 Dopamine Receptor: Potentiators | DiscoveRx D2 beta-arrestin cells, luminescence, 90 min; 100% = 57 uM dopamine signal | potentiation, % (concentration not given with the values) | 360,000 compounds, 0.23% hits; active = potentiation of 50% or more; inconclusive = 30% to 50%; inactive = 30% or less;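 note: tested on top of an EC20 dose of dopamine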
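PathHunter beta-arrestin assay in DiscoveRx D2 cells. Compounds were added with an EC20 of dopamine (50 nM final) for 90 min at 37 deg C. Luminescence was read 1 h after detection reagent, with 57 uM dopamine as the EC100 control.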
gsp ag = qHTS for Agonist of gsp, the Etiologic Mutation Responsible for Fibrous Dysplasia/McCune-Albright Syndrome: qHTS. gsp mutant cells, cAMP HTRF, 30 min; control for the full effect not named in the record. Potency, µM (doses to about 76.9 µM), inactives show at the highest dose activation (cAMP increase), most hits filed as activators. 340,000 compounds, 0.13% hits; active = well fitted activation curve with a large enough effect; inconclusive = small, poorly fitted or top-dose-only effect, or another doubt; inactive = no such curve, though single readings can be large or run the other way; cell line not stated here;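 note: phosphodiesterase inhibitor Ro 20-1724 added with compounds to block cAMP breakdown; potency is the fitted concentration of half-maximal effect; nearly all actives have a fitted effect of over 60% in size; about a fifth of the inactives were tested at one dose only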
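Cells in DMEM/10% FBS with G418 were pretreated with compounds in DMSO plus […] (300 uM stock) for 30 min at 37C. cAMP was measured by HTRF (cAMP-d2 plus anti-cAMP antibody-K) after 30 min at room temperature.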
TRPV1 potentiator = HTS Assay for Compounds that Act as Potentiators of the Vanilloid Receptor 1; potentiation, % at 8.33 µM; AID 540277, 2011; 320,000 compounds, 0.02% hits; TRPV1-expressing cells, Fluo-8 calcium influx, capsaicin EC20 potentiation; host cell line not named in the record; control for the full effect not named in the record; active means potentiation above 80%; inconclusive means 30% to 80%; inactive means below 30%; note: 0% is about no effect
Target sequence (Q8NER1 whole entry, looked up): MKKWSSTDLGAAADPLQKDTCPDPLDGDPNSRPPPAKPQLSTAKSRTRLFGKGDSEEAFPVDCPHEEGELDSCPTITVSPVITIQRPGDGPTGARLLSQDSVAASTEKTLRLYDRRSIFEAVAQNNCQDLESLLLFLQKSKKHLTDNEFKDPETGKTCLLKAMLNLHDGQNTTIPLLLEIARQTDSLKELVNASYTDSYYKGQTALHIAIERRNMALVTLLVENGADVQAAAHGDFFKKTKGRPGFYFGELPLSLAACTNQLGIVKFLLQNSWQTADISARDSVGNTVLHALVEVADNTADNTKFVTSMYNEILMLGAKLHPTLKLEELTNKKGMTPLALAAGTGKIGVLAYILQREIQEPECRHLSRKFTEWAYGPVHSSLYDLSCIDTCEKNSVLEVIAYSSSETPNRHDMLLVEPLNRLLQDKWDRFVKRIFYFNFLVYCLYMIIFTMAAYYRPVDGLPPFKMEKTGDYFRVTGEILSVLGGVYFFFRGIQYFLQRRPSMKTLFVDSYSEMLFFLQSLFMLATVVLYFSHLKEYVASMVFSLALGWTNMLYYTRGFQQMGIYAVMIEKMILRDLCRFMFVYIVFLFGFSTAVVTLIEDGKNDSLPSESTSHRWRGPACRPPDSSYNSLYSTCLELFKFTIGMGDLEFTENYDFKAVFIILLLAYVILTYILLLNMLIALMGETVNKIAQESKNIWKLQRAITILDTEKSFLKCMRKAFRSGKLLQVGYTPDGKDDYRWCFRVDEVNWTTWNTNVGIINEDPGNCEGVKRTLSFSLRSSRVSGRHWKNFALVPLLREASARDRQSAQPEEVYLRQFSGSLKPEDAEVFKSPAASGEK
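Cells expressing TRPV1 were dye-loaded with Fluo-8 and read kinetically: 10 s baseline, 3 min after compound (agonist portion), then 2 min after EC20 capsaicin (allosteric enhancer portion). Calcium-bound dye fluorescence at 480/520 nm.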
Menin MLL FP FL = qHTS Assay for Inhibitors Targeting the Menin-MLL Interaction in MLL Related Leukemias: Competition With Fluorescein Labeled MLL-derived Peptide | Fluorescence polarization, fluorescein-MLL peptide displacement from menin | FP activity change, % at 61.4 µM | 290,000 tested, under 10 active | AID 1766, 2009; inconclusive = falling polarisation curve, or a change in total fluorescence; inactive = total fluorescence flat and polarisation flat or rising; no compound was filed as active; the % refers to the polarisation; negative = inhibition;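 note: % of control where 0% means no effect; inhibitors lower the polarisation; unlabelled MLL peptide was the positive control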
ClpP mod = qHTS Assay for Activators of ClpP | 340,000 compounds, 1.9% hits | Potency, µM (doses to about 57.5 µM), inactives show at the top dose activity change, negative = active | AID 651965, 2013 | purified B. subtilis ClpP, FRET peptide cleavage, 20 min; active = well fitted falling curve with a large enough effect; inconclusive = small, poorly fitted or top-dose-only effect; inactive = no such curve, though single readings can be large or run the other way; note: potency is the fitted concentration of half-maximal effect; the source files actives as falling curves though it sought activators and does not explain the sign; nearly all actives have a fitted effect of over 65% in size; many hits overshoot -100%
Target sequence (P80244 whole entry, looked up): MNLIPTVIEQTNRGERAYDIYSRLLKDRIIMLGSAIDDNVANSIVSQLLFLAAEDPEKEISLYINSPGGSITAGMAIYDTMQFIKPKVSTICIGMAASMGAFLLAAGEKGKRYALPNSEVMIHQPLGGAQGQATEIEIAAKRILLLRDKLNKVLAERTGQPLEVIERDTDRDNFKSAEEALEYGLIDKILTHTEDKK
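FRET quenching reversal measured ClpP activation: 10 microg/mL B. subtilis ClpP at pH 8 with the FRET-FV decapeptide, read at 430 nm after 320 nm excitation. The 20-min minus 0-min signal was scaled between DMSO/no-enzyme wells and ADEP (5.8 microM final).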
Sfp inh = qHTS Assay for Inhibitors of Bacillus subtilis Sfp phosphopantetheinyl transferase (PPTase). Biochemical Sfp PPTase activity, qHTS. AID 1490, 2009. 310,000 compounds, 3.5% hits. Potency, µM, without a hit: max response, negative = inhibition, hits mostly inhibitors. 4'-phosphopantetheinyl transferase ffp (Bacillus subtilis), Q9F4F7; active = well fitted inhibition curve with a large enough effect; inconclusive = small, poorly fitted or top-dose-only effect, or another doubt; inactive = no such curve, though single readings can be large or run the other way;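 note: the enzyme is Sfp with the accession as filed and its product quenches rhodamine fluorescence; potency is the fitted concentration of half-maximal effect; 0% = enzyme reaction without inhibitor and -100% = no enzyme wells; top concentration of the series not given in the record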
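With Hepes-Na pH 7.6 buffer containing 10 mM MgCl2, Sfp (15 nM) modified BHQ-2-YbbR (12.5 uM) using rhodamine-CoA (5 uM). Two reads 30 minutes apart at 525/598 nm yielded each well's rate.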
Active calls of the source: *; ? = inconclusive; nt = no result given; [ ] = another dose, or the depositor's remark. This is a random part of the collection; 5.1% or so of the library scored in one or more.

Key to letters – A = gsp antag; B = D2 PAM; C = gsp ag; D = TRPV1 potentiator; E = Menin MLL FP FL; F = ClpP mod; G = Sfp inh
1	Cc1nn(-c2nc3ccccc3s2)c(N)c1-c1ccc(Cl)cc1
  A = -2%; B = -22; C = -24%; D = 6; E = 3.8; F = -2.0%; G = -15%

2	COC(=O)CCC(=O)NC(=S)Nc1ccccc1F
  A = -1%; B = -6; C = 3%; D = 6; E = 1.9; F = 2.3%; G = 14%

3	O=C(c1cnc2n(c1=O)CCS2)N1CCN(C(c2ccccc2)c2ccc(Cl)cc2)CC1 (stereo unspecified)
  A = -12%; B = -7; C = -83%[inhibitor]; D = nt; E = 1.7; F = -0.7%; G = -4%

4	COC(=O)c1ccc(NC(=O)CN2CCCC2)cc1
  A = 0%; B = -19; C = 2%; D = -2; E = -0.4; F = -1.2%; G = 20%

5	CCn1c(Cc2ccccc2)nnc1SCC(=O)NC1CC1
  A = 8%; B = -10; C = 1%; D = 1; E = -0.2; F = 1.5%; G = 13%

6	COc1cc(OC)c(OC)cc1CN1CCN(c2ccc(F)cc2)CC1
  A = 5%; B = -18; C = 9%[15.4 µM]; D = 10; E = -0.5; F = -24%; G = 0%

7	Cc1cc(C)c2nc(-c3ccccn3)cc(C(=O)NCc3cc(C)n(C)n3)c2c1
  A = -13%; B = 5; C = -2%[15.4 µM]; D = -16; E = 2.3; F = 0.2%; G = 2%

8	O=S(=O)([N-]c1nc2ccccc2nc1-n1cc[n+](Cc2ccccc2)c1)c1ccc(Br)cc1
  A = 12%; B = 0; C = -5%[15.4 µM]; D = 3; E = 3.6; F = nt; G = 1%

9	CSCCC(NC(=O)c1ccco1)C(=O)NCc1ccc(F)cc1 (stereo unspecified)
  A = 9%; B = -10; C = 37%; D = 29; E = -0.2; F = -2.3%; G = -9%

10	CCOC(=O)c1sc2nc(CSc3ccccc3)nc(N3CCC(C(N)=O)CC3)c2c1C
  A = nt; B = -2; C = -14%[15.4 µM]; D = 11; E = -0.3; F = nt; G = ?

11	CN1CCC(N(C)C(=O)c2ccc(Cl)c(S(=O)(=O)Nc3ccc(Cl)cc3)c2)CC1
  A = 2%; B = -3; C = 0%; D = nt; E = nt; F = -1.9%; G = nt

12	Clc1ccc(Cn2nnc(-c3ccc(CN4CCOCC4)cc3)n2)cc1
  A = -8%; B = -26; C = 17%; D = -3; E = 5.2; F = -2.4%; G = 0%

13	Cc1ccc(C2NC(=O)c3c(sc4c3CCN(C)C4)N2)o1 (stereo unspecified)
  A = 5%; B = -18; C = ?; D = -12; E = ?; F = 28µM*; G = ?

14	CCCN(CC(=O)Nc1ccccc1C)C(=O)c1ccc(S(=O)(=O)N2CCCCCC2)cc1
  A = -12%; B = -26; C = -47%[inhibitor]; D = 0; E = nt; F = 0.4%; G = 9%

15	O=C(COC(=O)C1CC1)Nc1ccc([N+](=O)[O-])cc1C(F)(F)F
  A = 7%; B = 0; C = -21%; D = -2; E = nt; F = -0.3%; G = nt

16	CCOc1ccc(C(=O)COC(=O)c2cccc(-n3cnnn3)c2)cc1
  A = -8%; B = 2; C = -52%[15.4 µM]; D = 6; E = nt; F = -1.3%; G = 5%

17	CCOC(=O)c1c(C)oc2c1C(=O)c1ccccc1C2=O
  A = ?; B = 1; C = 27%; D = 4; E = -2.8; F = -0.6%; G = ?

18	COc1ccc(N/C(N)=N/c2nc(CSc3ccc(C)cc3)cc(=O)[nH]2)cc1
  A = -7%; B = -13; C = 3%; D = 3; E = -2.4; F = -0.6%; G = 2%

19	CC1(C)CSC(C)(C)C(=O)N1
  A = -6%; B = -18; C = -19%; D = nt; E = nt; F = 2.0%; G = nt

20	COc1ccc(/C=C/C(=O)O)cc1S(=O)(=O)NCc1ccccc1
  A = 6%; B = -6; C = -2%; D = 2; E = 3.3; F = -3.5%; G = 17%

21	COc1ccc(NC(=O)CN2CCN(C3c4ccccc4-c4ccccc43)CC2)cc1
  A = -3%; B = -2; C = 1%; D = 22; E = 4.2; F = -1.1%; G = -26%

22	O=c1[nH]c2ccccc2n2cnnc12
  A = -6%; B = -6; C = -1%[15.4 µM]; D = 8; E = -2.7; F = nt; G = 13%

23	Cc1cc(=O)oc(C)c1C(=O)Nc1ccccc1F
  A = 4%; B = -4; C = 3%[15.4 µM]; D = 2; E = 1.8; F = nt; G = 36%[activator]

24	O=C(CSc1ncnc2sc3c(c12)CCCCC3)NCc1ccco1
  A = 3%; B = 13; C = 5%; D = -7; E = 0.6; F = -6.9%; G = 14µM*

25	O=C(CNC(=O)c1ccccc1Br)NNC(=O)c1cccs1
  A = 4%; B = 4; C = -10%; D = -10; E = nt; F = -0.6%; G = nt

26	O=C(c1ccccc1SCc1ccccc1)N1CCCCCC1
  A = -15%; B = -10; C = 3%[15.4 µM]; D = -5; E = 4.4; F = nt; G = -10%

27	O=C(CNC(=O)c1ccco1)Nc1cc(Cl)ccc1N1CCOCC1
  A = 1%; B = -3; C = -12%; D = 7; E = 1.6; F = 28µM*; G = 10%

28	O=C(NCc1ccco1)c1cc(S(=O)(=O)NC2CC2)ccc1Br
  A = -1%; B = -16; C = -3%[15.4 µM]; D = nt; E = nt; F = 0.2%; G = nt

29	COc1ccc(CC(=O)N2CCN(c3ccccc3)CC2)cc1OC
  A = 4%; B = -5; C = -37%[inhibitor]; D = -1; E = -4.0; F = nt; G = 26%

30	CC(C)NC(=O)C(=O)NNC(=O)C12CC3CC(CC(C3)C1)C2
  A = 8%; B = -1; C = -34%[inhibitor]; D = -5; E = 1.2; F = 1.1%; G = -2%

31	O=C(CSc1ncnc2c1cnn2-c1ccccc1)Nc1ccccc1
  A = 16%; B = 8; C = -17%; D = -5; E = 9.2; F = -13%; G = -28%

32	Cc1ccc2cc(/C=N/NC(=O)c3ccccc3[N+](=O)[O-])c(Cl)nc2c1
  A = -2%; B = -2; C = 6%[15.4 µM]; D = 0; E = 3.9; F = nt; G = 8%

33	CCOC(=O)C1(CC2CC2)CCN(Cc2ccc(C(=O)OC)cc2)CC1
  A = -2%; B = -14; C = ?; D = -3; E = -3.4; F = 2.0%; G = -8%

34	COc1cccc(OCCOCC(O)CN2CCN(Cc3ccc(Cl)cc3)CC2)c1 (stereo unspecified)
  A = 6%; B = -29; C = -25%; D = 7; E = 4.6; F = 0.9%; G = 17%

35	CC1(C)Cc2c(cnn2-c2ccccc2)C(NC(=O)c2ccoc2)C1 (stereo unspecified)
  A = 1%; B = -2; C = 4%; D = -8; E = nt; F = 0.7%; G = -15%

36	O=C(NCCCN1CCCC1=O)C1CCN(S(=O)(=O)c2cc(C(F)(F)F)ccc2Cl)CC1
  A = -4%; B = -1; C = -3%; D = -24; E = nt; F = -0.7%; G = nt

37	CC(C)[C@H](NC(=O)c1ccccc1)C(=O)OCC(=O)Nc1ccc(Cl)cc1C(F)(F)F
  A = 6%; B = -12; C = -4%[15.4 µM]; D = -12; E = 2.4; F = -1.4%; G = 16%

38	Cc1cc(Cl)ccc1NC(=S)NCCN1CCOCC1
  A = 15%; B = -23; C = ?; D = -6; E = 2.8; F = -6.9%; G = 0%

39	O=C(CCCn1c(=S)[nH]c2ccc(Br)cc2c1=O)NCc1ccccn1
  A = -16%; B = -3; C = ?; D = 3; E = -1.0; F = -0.1%; G = -20%

40	CCn1cc(CN2CCN(Cc3ccccc3)C(CCO)C2)c2ccccc21 (stereo unspecified)
  A = 5%; B = -10; C = -14%; D = 6; E = -3.2; F = nt; G = 8%

41	O=C(NCc1ccccc1)c1ccc2c(c1)C(=O)N(Cc1ccncc1)C2=O
  A = -9%; B = -1; C = 14%; D = 28; E = 0.9; F = -2.6%; G = 7%

42	Cn1c(N)c(C(=O)COC(=O)c2cc(S(=O)(=O)N3CCOCC3)ccc2F)c(=O)n(C)c1=O
  A = -2%; B = 2; C = 24%; D = nt; E = nt; F = -1.5%; G = nt

43	O/N=C1/CCCCC1c1ccccn1 (stereo unspecified)
  A = 6%; B = -4; C = -30%[inhibitor]; D = -11; E = -2.0; F = -1.8%; G = -24%

44	COc1cc(C(=O)NC2CCCC2)c(Br)c(OC)c1OC
  A = 2%; B = 0; C = 11%; D = 4; E = -5.4; F = nt; G = 21%

45	CN(C)/C=C/C(=O)c1cccc(C(F)(F)F)c1
  A = 5%; B = 2; C = -33%[15.4 µM]; D = -9; E = 3.3; F = nt; G = -1%

46	O=C(c1ccc(Sc2ccc(F)cc2)c([N+](=O)[O-])c1)N1CCOCC1
  A = 7%; B = -19; C = 3%[15.4 µM]; D = -30; E = 1.1; F = 0.3%; G = 14%

47	COCCn1c(SCC(=O)NNC(=O)c2cc(Cl)ccc2OC)nnc1-c1ccncc1
  A = 0%; B = -38; C = 11%; D = -1; E = nt; F = -4.8%; G = nt

48	Cc1ccc(C(=O)/C=C/c2cn(CC(O)CN3CCOCC3)c3ccccc23)cc1 (stereo unspecified)
  A = -6%; B = -21; C = 26%; D = 0; E = 33[activator]; F = -2.9%; G = -5%

Screens from PubChem.
